Compound activity from PubChem.
VDR inh: vitamin D3 receptor (human) inhibition | Potency, µM, without a hit: max response, negative = inhibition, hits mostly inhibitors | hit rate 0.93% among 400,000 | P11473 | VDR-SRC2-3 peptide fluorescence polarization, 2 h; active = well fitted inhibition curve with a large enough effect; inconclusive = small, poorly fitted or top-dose-only effect, or another doubt; inactive = no such curve, though single readings can be large or run the other way; note: series mostly up to about 120 µM
Target sequence (P11473 whole entry, looked up): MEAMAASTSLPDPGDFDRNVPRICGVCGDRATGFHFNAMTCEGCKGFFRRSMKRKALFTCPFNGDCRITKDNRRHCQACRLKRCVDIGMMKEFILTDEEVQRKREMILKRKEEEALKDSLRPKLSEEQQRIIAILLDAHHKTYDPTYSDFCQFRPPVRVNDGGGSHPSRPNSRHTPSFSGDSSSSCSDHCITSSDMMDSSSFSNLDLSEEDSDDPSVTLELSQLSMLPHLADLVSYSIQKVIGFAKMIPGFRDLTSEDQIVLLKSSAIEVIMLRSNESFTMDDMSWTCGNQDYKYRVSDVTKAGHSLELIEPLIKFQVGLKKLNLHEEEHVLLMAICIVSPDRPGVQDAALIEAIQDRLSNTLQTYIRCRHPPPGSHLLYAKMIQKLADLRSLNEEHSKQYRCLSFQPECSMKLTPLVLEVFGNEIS
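Fluorescence polarization assay measuring small-molecule disruption of VDR binding to the coregulator peptide SRC2-3. Compounds were pin-transferred (23 nl) into the reagent mix and incubated 2 h at room temperature before reading.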
* = called active by the depositor; ? = inconclusive; & = joins results of further samples. % is set by controls: 0 for no effect and ±100 for the full control effect; potency is the fitted concentration of half-maximal effect.

SMILES	VDR inh
C[C@H](CO)N1C[C@H](C)[C@@H](CN(C)S(=O)(=O)c2ccccc2)Oc2ccc(NC(=O)Nc3ccc(C(F)(F)F)cc3)cc2C1=O	0%
CC1(C)CC2CC(C)(CN2C(=S)NC(=O)c2ccccc2Cl)C1 (stereo not drawn)	-13%
Cc1ccnc(N/C=C(/NC(=O)c2ccccc2)C(=O)N/N=C\c2ccc(Cl)cc2)n1	-7%
O=C(NC1CCCCC1)N1CCCCCC1	21%
CCNc1ccc(C(=O)OCC(=O)N2c3ccccc3NC(=O)C2(C)C)cc1[N+](=O)[O-]	-3%
COc1cc(Cl)c(C)cc1NC(=O)[C@@H]1CCCN1C(=O)c1cccs1	7%
Cn1cccc1Cc1nnc(SCC(=O)NC2CCCC2)n1-c1ccc(F)cc1	-4%
COc1ccc(C2C3=C(CCCC3=O)Nc3nc(C(F)(F)F)nn32)c(OC)c1OC (stereo not drawn)	14%
CCOc1ccc(-n2c(SCC(N)=O)nc3sc4c(c3c2=O)CCN(C)C4)cc1	-1%
CCSc1c(-c2ccccc2)nc2c(C)cccc2c1C(=O)O	5%

Overlap with the part before: two compounds, then new ones.
SMILES	VDR inh
CCOc1ccc(-n2c(SCC(N)=O)nc3sc4c(c3c2=O)CCN(C)C4)cc1	-1%
CCSc1c(-c2ccccc2)nc2c(C)cccc2c1C(=O)O	5%
Cc1cc(C=O)c(C)n1-c1ccc2c(c1)OCO2	-8%
CCCOc1cc(C)nc(-c2ccccc2O)n1	2%
COc1ccccc1NS(=O)(=O)c1cc2c(cc1C)NC(=O)CO2	-15%
Cc1cccc(OCc2nnc(SCC(=O)N(C(C)C)C(C)C)n2Cc2ccco2)c1C	-18%
Cc1ccc(NC(=O)CN(c2ccccc2)S(=O)(=O)N(C)C)cc1Cl	-21%
CCOC(=O)c1sc(NC(=O)CSc2nnnn2-c2ccc(C)c(C)c2)nc1C	12%
Cc1cc(C)n(CC(=O)N2CCCC(N3CCN(c4cccc(C(F)(F)F)c4)CC3)C2)n1 (stereo not drawn)	8%
CC(CNC(=O)C1CCCN(S(=O)(=O)N2CCOCC2)C1)c1ccccc1 (stereo not drawn)	-6%
CN(CCCNC(=O)CSc1cc(=O)n(C)c2ccc(Cl)cc12)Cc1ccccc1	4%
COC(=O)[C@]1(C)N[C@H](CN(C)C(C)=O)[C@@H]2C(=O)N(C)C(=O)[C@@H]21	-4%
COC(=O)c1ccc2c(c1)N(Cc1ccccc1F)C(=O)c1ccccc1S2=O (stereo not drawn)	24%
CC(C)OCCCNC(=S)N1CCC(C(=O)c2ccc(Cl)cc2)CC1	9%
O=C(O)c1cc(-c2cccnc2)nn1-c1ccccn1	-19%
CC(=O)Nc1nc2cccc([N+](=O)[O-])c2s1	13%
COc1ccc(S(=O)(=O)Nc2cccc(S(=O)(=O)N3CCCCCC3)c2)cc1	12%
O=C(NNc1ccc([N+](=O)[O-])cc1)C1CC1c1ccccc1 (stereo not drawn)	-3%
Cc1nc2cc(NC(=O)CCS(=O)(=O)c3ccccc3)ccc2s1	-11%
CCc1ccc(N2CC(C(=O)NC3=NCCS3)CC2=O)cc1 (stereo not drawn)	0%
O=C(NCCC(=O)N1CCC2(CC1)NCCc1[nH]cnc12)c1cccc(Cl)c1	-10%
FC(F)(F)c1cc(CO[C@@H]2CCCN[C@@H]2c2ccccc2)cc(C(F)(F)F)c1	-13%
COC(=O)c1sc(NC(=O)CSc2nnnn2-c2cccc(OC)c2)nc1C	-2%
CCOc1ncccc1C(=O)N(CC)CC(=O)NCc1ccc(Cl)cc1	6%
COc1cccc(CN2C(=O)c3ccccc3C2C(=O)NCCc2ccccc2)c1 (stereo not drawn)	-7%
Cc1ccccc1CC(=O)Nc1cc(C(C)(C)C)on1	1%
Clc1ccc(OCCSCc2nc3ccccc3[nH]2)cc1	14%
CCOC(=O)c1sc(NC(=O)CCCCCN2C(=O)c3cccc4cccc(c34)C2=O)nc1C	-5%
COC(=O)CCC(=O)OC1(C)C(=O)C=C2C=C3CCCN3C=C2C1=O (stereo not drawn)	-17%
Cc1cccc(-c2ncc(CN3CCCC(CO)(Cc4ccccc4C)C3)cn2)c1 (stereo not drawn)	-1%
Cc1ccc(CCNC(=O)CCS(=O)(=O)c2cc3c(cc2C)NC(=O)CO3)cc1	-9%&-3%
Cc1cccc(NC(=S)NCCO)c1C	-28%
Nc1ncnc2c1ncn2C1OC(COP(=O)(O)O)C(O)C1O (stereo not drawn)	1%&0%
CCOC(=O)Nc1ccc2c(CN3CCN(S(=O)(=O)c4ccccc4)CC3)cc(=O)oc2c1	-8%
Cn1c(SCC(=O)c2ccc(F)cc2)nnc1-c1ccccc1N	-22%
O=C(NC1CCCC1)c1ccc2c(c1)N(Cc1ccccc1)CCS2	-10%
COC(=O)CCC(=O)Nc1ccc(N=Nc2ccccc2)cc1	-4%
Clc1ncnc2c1oc1ccccc12	11%
CCCNC(=O)CSc1nnc(-c2ccco2)n1C	-15%
COCc1cc([C@@H]2C[C@H]3CN(c4ccccc4)C(=O)[C@]34CCCN24)ccc1OC	12%
Cc1cc(Cl)ccc1NC(=O)CCN1C(=O)C2CCCCC2C1=O (stereo not drawn)	-4%
CCOCCCNC(=O)C1CCN(c2cc(C)nc3c(-c4ccc(OC)c(OC)c4)c(C)nn23)CC1	-10%
CCOC(=O)C1(C/C(C)=N/NC(N)=O)CC(C)OC1=O (stereo not drawn)	-23%
COc1ccc(-n2c(=O)c(-c3cccs3)nc3cnc(N4CCN(C)CC4)nc32)cc1	-20%
CCOc1ccc(NC(=O)c2sc3nc4c(cc3c2N)CCCCCC4)cc1	-4%
Cn1cnnc1SCC(=O)NCCC(c1ccccc1)c1ccccc1	-13%
CCOc1ccccc1N1CCN(C(=O)CCNS(=O)(=O)c2ccccc2F)CC1	-27%
O=C1CC(N2CCN(C3CC(=O)N(CCc4ccccc4)C3=O)CC2)C(=O)N1CCc1ccccc1 (stereo not drawn)	3%
COc1ccc(C(=O)N/C(=C\c2cn(C)c3ccccc23)C(=O)OCC(C)C)cc1	-22%
CCCS(=O)(=O)N1CCCC(C(=O)N2CCOCC2)C1 (stereo not drawn)	2%
CCOc1ccc2nc(Cl)c(C3CC(c4ccc(C)cc4)=NN3C(=O)CCCC(=O)O)cc2c1 (stereo not drawn)	-5%
Cc1nc(CCNC(=O)CC2C(=O)NCCN2Cc2ccoc2)nc2c1CCCC2 (stereo not drawn)	16%
Further entries:
SMILES	VDR inh
O=c1ccc(Oc2nc(N3CCOCC3)nc(N3CCOCC3)n2)n[nH]1	6%
CCOc1ccc2[nH]c(S(=O)(=O)CC)nc2c1Cl	-5%
CC(=O)c1c(N)[nH]c(-c2ccccc2)nc1=S	13%
Cc1cccc(C(=O)NC2CCN(CC(=O)Nc3ccc4c(c3)OCO4)CC2)c1	4%
CC1=C(C(=O)OCC2CCCO2)C(c2ccccc2Cl)NC(=O)N1 (stereo not drawn)	-5%
C[C@@H]1CN([C@H](C)CO)C(=O)c2cccc(NS(=O)(=O)c3cccs3)c2O[C@H]1CN(C)Cc1ccccc1	9%
CCOC(=O)c1c(C)[nH]c(C)c1C(=O)COC(=O)c1ccc(Cl)c(S(N)(=O)=O)c1	5%
COc1ccc(N(CC(=O)NCc2ccccc2)C(=O)CCC(=O)Nc2cc(C)ccn2)c(OC)c1	-18%
COc1ccc(OC)c(CNc2ncnc3c2nc2n3CCCC2)c1	-2%
Cc1ccc(NC(=O)C(C)OC(=O)CCC2CCCCC2)cc1 (stereo not drawn)	-2%
O=C(CNC(=S)N(Cc1ccccc1)Cc1cccnc1)NC1CCCCC1	-3%
Cc1nn2c(-c3ccccc3)nnc2c2ccccc12	-3%
COc1cc2c(cc1NCc1ccc3c(c1)OCO3)oc1ccccc12	14%
Cn1c(=O)oc2cc(S(=O)(=O)NCc3ccc(C(=O)O)cc3)ccc21	13%
CCOC(=O)CSc1nnc(CSc2nc3sc4c(c3c(=O)[nH]2)CCC4)n1C	2%
O=C(Cc1cccc(NC(=O)C2CCCN(C(=O)CCc3ccccc3)C2)c1)Nc1cccc(C(=O)N2CCOCC2)c1 (stereo not drawn)	-2%
COc1ccc(-c2nc(SCC(=O)NC3CCCCC3)n[nH]2)cc1	14%
CCOC(=O)c1c(C)c(-c2ccccc2)n(CC(=O)Nc2cccc(F)c2)c1C	1%
CCCS(=O)(=O)N1CCCC(C(=O)NCc2ccco2)C1 (stereo not drawn)	12%
Cc1ccc(CNC(=O)c2c(-c3ccccc3Cl)noc2C)o1	1%
CCOc1ccc(NC(=O)CC2C(=O)N(c3ccccc3)C(=O)N2Cc2cccc(OC)c2)cc1 (stereo not drawn)	14%
COc1ccc(CC(=O)Nc2sc3c(c2C(=O)Nc2cccc(C)c2)CCCCC3)cc1	-8%
CC(C)c1ccc(NC2CCCN(C(=O)c3cccc(N4CCNC4=O)c3)C2)cc1 (stereo not drawn)	2%
COC(=O)C1=CN(C(C)C)C=C(C(=O)OC)C1c1cccc(OC)c1	-2%
O=C(C1=NNCC1c1ccccc1)C1CO1 (stereo not drawn)	-6%
O=S(=O)(/C(=C\c1ccc(C(F)(F)F)cc1)c1nc2ccccc2[nH]1)c1ccccc1	14µM*
Cc1nccn1CCCNC(=O)CC1C(=O)NCCN1Cc1ccc(F)cc1Cl (stereo not drawn)	-8%
CC(C)NC(=O)NC(=O)CSc1nnc(C(F)(F)F)n1C	-6%
N#Cc1cc([N+](=O)[O-])cnc1NCC(O)CO (stereo not drawn)	-2%
Cc1[nH]c(=O)c(C(=O)/C=C/c2ccccc2F)c2c1CCCC2	?

Entries shown so far with two or more sulfur atoms (7):
SMILES	VDR inh
CCOc1ccc(-n2c(SCC(N)=O)nc3sc4c(c3c2=O)CCN(C)C4)cc1	-1%
CCOC(=O)c1sc(NC(=O)CSc2nnnn2-c2ccc(C)c(C)c2)nc1C	12%
COc1ccc(S(=O)(=O)Nc2cccc(S(=O)(=O)N3CCCCCC3)c2)cc1	12%
Cc1nc2cc(NC(=O)CCS(=O)(=O)c3ccccc3)ccc2s1	-11%
COC(=O)c1sc(NC(=O)CSc2nnnn2-c2cccc(OC)c2)nc1C	-2%
C[C@@H]1CN([C@H](C)CO)C(=O)c2cccc(NS(=O)(=O)c3cccs3)c2O[C@H]1CN(C)Cc1ccccc1	9%
CCOC(=O)CSc1nnc(CSc2nc3sc4c(c3c(=O)[nH]2)CCC4)n1C	2%

New compounds follow.
SMILES	VDR inh
CC(=O)NS(=O)(=O)c1ccc(NC(=O)c2ccc(NC(=O)c3cccs3)cc2)cc1	10%
CCS(=O)(=O)N1CCC(C(=O)NCc2cccnc2)CC1	11%
O=C(CNCc1ccccc1Cl)Nc1cc(S(=O)(=O)N2CCOCC2)ccc1Cl	24%
CN(c1cccc(NS(=O)(=O)c2cccc([N+](=O)[O-])c2)c1)S(C)(=O)=O	-3%
COc1cc(/C=N/Nc2ccccc2[N+](=O)[O-])ccc1OC(=O)c1ccccc1F	21%
Clc1nnc2c3ccccc3ccn12	-10%
CC(=O)c1cccc(S(=O)(=O)N(Cc2cc3cc4c(cc3[nH]c2=O)OCCO4)CC2CCCO2)c1 (stereo not drawn)	17%
CC(C)c1ccc(NC(=O)C(Cc2ccccc2)NS(=O)(=O)c2ccc3c(c2)CCC(=O)N3)cc1 (stereo not drawn)	-7%
O=c1sc2ccccc2c(N2CCOCC2)c1[N+](=O)[O-]	-4%
Cc1cc(Oc2ccccc2)nc(SCC(N)=O)n1	-6%
Cc1cc(NC(=O)Nc2cccc([N+](=O)[O-])c2)no1	-6%
Cc1ccc(NC(=O)Cn2c(=O)c3ccc(Cl)cc3n3nncc23)cc1	0%
Cc1cccc(NC(=O)c2ccc(Cl)nc2)n1	-12%
CCOC(=O)N1CC=C2C(C#N)=C(N)C(C#N)(C#N)[C@H](c3ccc(OCC)c(OCC)c3)[C@H]2C1	-4%
CCOC(=O)c1ccc(S(=O)(=O)N2CCN(c3nc(-c4ccccc4)nc4ccccc34)CC2)cc1	15%
CC(C)(C)OC(=O)[C@H](Cc1ccccc1)NC(=O)c1nc[nH]c1C(=O)NC1CCN(C(=O)OC(C)(C)C)CC1	-8%
O=C(O)C/C(=C\c1cc(Br)cs1)c1nc2ccccc2o1	6%
COc1ccccc1C(=O)COC(=O)c1ccc(N(C)C)cc1	-2%
CCOc1ccc(N(CC)S(=O)(=O)c2cccc3nsnc23)cc1	-9%
CCn1c(=S)[nH]c2nc3c(cc2c1=O)CCCC3	3%

A stretch from the list above, as a working copy:
SMILES	VDR inh
Cc1cccc(NC(=O)c2ccc(Cl)nc2)n1	-12%
CCOC(=O)N1CC=C2C(C#N)=C(N)C(C#N)(C#N)[C@H](c3ccc(OCC)c(OCC)c3)[C@H]2C1	-4%
CCOC(=O)c1ccc(S(=O)(=O)N2CCN(c3nc(-c4ccccc4)nc4ccccc34)CC2)cc1	15%

Next section
SMILES	VDR inh
CCCCn1c(N)c(N(CC)C(=O)CSc2nnc(-c3ccco3)n2CC)c(=O)[nH]c1=O	8%
Cc1ccc(-n2nc(C)c(/C=N/NC(=O)c3cccnc3)c2Cl)cc1	-4%
O=C(Nc1nccs1)c1cc(S(=O)(=O)N2CCCCC2)ccc1Cl	5%
O=C(c1cc(COc2c(F)cccc2F)on1)N1CCC(c2ccccc2F)C1 (stereo not drawn)	12%
O=C(COC(=O)C1(c2ccc(Cl)cc2)CCCC1)Nc1ncc(C(F)(F)F)cc1Cl	-9%
CCC(C)NC(=O)c1cc(-c2ccccc2O)on1 (stereo not drawn)	0%
CC1(C)CC(=O)c2c(Cc3ccccc3)noc2C1	10%
Cc1nc(Cl)sc1C(=O)O	-12%
Cc1ccc(NC(=O)CSCc2cc(=O)n3ccsc3n2)cc1	2%
CCn1c(SCc2cccc(C(F)(F)F)c2)nnc1-c1ccco1	-4%
CCn1cc(C(=O)N[C@H](C(=O)O)C(C)C)c(=O)c2cc3c(cc21)OCO3	6%
CCN1C(=NCCOC)N[C@@H](c2ccccc2)[C@H](C(=O)OC)[C@H]1C	12%
Cc1ccc(Nc2nc(COC(=O)COc3ccc(C=O)cc3)cs2)cc1	2%

An excerpt; the hit share may differ from the screen's.
